# VDR inh – inhibitors of human vitamin D receptor; VDR-SRC2-3 peptide fluorescence polarization, 2 h; Potency, µM, for inactives: max response, negative = inhibition, actives largely listed as inhibitors; 400,000 tested, 0.93% active; AID 504847; active = well fitted inhibition curve with a large enough effect; inconclusive = small, poorly fitted or top-dose-only effect, or another doubt; inactive = no such curve, though single readings can be large or run the other way; note: series mostly up to about 120 µM
# Target sequence (P11473 whole entry, looked up): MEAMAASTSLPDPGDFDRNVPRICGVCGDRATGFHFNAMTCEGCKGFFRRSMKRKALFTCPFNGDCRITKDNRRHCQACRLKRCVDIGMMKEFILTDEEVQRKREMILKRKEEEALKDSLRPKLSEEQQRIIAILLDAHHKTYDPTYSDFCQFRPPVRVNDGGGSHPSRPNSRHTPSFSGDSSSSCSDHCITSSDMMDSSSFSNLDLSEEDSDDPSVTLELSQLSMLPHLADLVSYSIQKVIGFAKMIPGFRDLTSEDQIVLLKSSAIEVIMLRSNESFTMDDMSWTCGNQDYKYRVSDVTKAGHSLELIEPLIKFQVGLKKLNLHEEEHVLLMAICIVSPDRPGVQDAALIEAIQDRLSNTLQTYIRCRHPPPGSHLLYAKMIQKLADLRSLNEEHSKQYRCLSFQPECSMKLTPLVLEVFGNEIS
#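 Signal is fluorescence polarization, reporting how far test compounds block the interaction of VDR with the SRC2-3 coregulator peptide after a 2 h room-temperature incubation.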
# Starred values were filed as active, the others as inactive; ? = inconclusive; & = joins results of further samples. % is set by controls: 0 for no effect and ±100 for the full control effect; potency is the fitted concentration of half-maximal effect.
no.	molecule	VDR inh
1	Cc1ccccc1C(=O)NNc1ncnc2c1cnn2C	15%
2	CCNS(=O)(=O)c1ccc(CCC(=O)N2CCN(c3ccc(OC)cc3)CC2)cc1	-5%
3	Cc1ccc(NC(=O)CSc2nc(N)cc(=O)[nH]2)cc1S(=O)(=O)N1CCCCCC1	12%
4	COc1ccc(-c2[nH]n(-c3ccc([N+](=O)[O-])cc3)c(=O)c2C=NCc2ccncc2)cc1	-9%
5	O=C(Cc1csc2nc(-c3ccc(F)cc3)cn12)NCc1ccccc1	16%
6	O=C(CN(Cc1ccco1)C(=O)CNS(=O)(=O)c1ccc(Cl)cc1)NCC1CCCO1 (configuration not stated)	12%
7	O=C(Nc1cccc(-c2ccc(N3CCOCC3)nn2)c1)c1ccccc1	9%
8	CC(=O)OCC1(C)CN(c2ccccc2)N(C(=O)c2ccc(F)cc2)C1=O (configuration not stated)	-4%
9	Cc1ccc(/C=C/C(=O)O)cc1S(=O)(=O)Nc1ccc(C(=O)O)cc1	-8%
10	Cc1cc(C)c(S(=O)(=O)/N=C2\C=CC(=O)C(Cl)=C2)c(C)c1	-25%
11	CCOC(=O)c1ccc(N2Cc3ccccc3C2=NC(=O)c2cccc([N+](=O)[O-])c2)cc1	7%
12	O=C(CNC(=O)c1ccco1)N/N=C/c1c[nH]c2ccccc12	-1%
13	CSc1ncccc1C(=O)Nc1ccc2c(c1)OCCO2	-6%
14	O=C(CN1NS(=O)(=O)c2ccccc2C1=O)Nc1ccccc1OC(F)F	8%
15	CCCCN(C(=O)c1ccc(S(=O)(=O)N(CC)CC)cc1)c1c(N)n(CCC)c(=O)[nH]c1=O	-11%
16	COc1ccccc1NC(=O)CC1S/C(=N/N=C2\CCCc3ccccc32)NC1=O (configuration not stated)	18%
17	C[C@H](O)[C@@H]1C(=O)N2CCc3ccc(N4CCOCC4)cc3[C@@H]2C[C@@H]1N(C)S(=O)(=O)c1ccccc1	-7%
18	O=C(CCS(=O)(=O)c1cc2c(cc1Cl)NC(=O)CO2)NCc1ccc(Cl)cc1	9%
19	CC1CCN(S(=O)(=O)c2ccc3c(ccn3CCC(=O)NC(C)C)c2)CC1	23%
20	COC(=O)c1nn(-c2ccccc2)c(=O)cc1Oc1ccccc1	3%
21	O=C1NC(NS(=O)(=O)c2ccccc2)(C(F)(F)F)C(=O)N1Cc1ccccc1 (configuration not stated)	1%
22	CCOc1ccc(-c2c(=O)n(OCc3ccccc3Br)c3ccccc3[n+]2[O-])c(OCC)c1	-30%
23	Cc1nc2nc[nH]n2c(=O)c1CCC(C)C	-10%
24	CCOc1cc(CNc2nn[nH]n2)ccc1OCC(=O)NC(C)(C)C	1%
25	CC1Cn2c(nc3c2c(=O)[nH]c(=O)n3C)O1 (configuration not stated)	-2%
26	CCC(NC(=O)CNC(=O)c1ccc2c(c1)OCO2)c1ccc(Br)cc1 (configuration not stated)	-6%
27	Cc1ccccc1NC(=O)c1c(Cl)nc(C)c(Cl)c1C	-10%
28	O=C(CCC1N=C2c3ccccc3N=C(SCc3cccc(Cl)c3)N2C1=O)NCc1cccs1 (configuration not stated)	9%
29	O=C(COc1ccc(Cl)cc1)OCc1cc(=O)n2nc(C3CC3)sc2n1	3%
30	O=S(=O)(c1ccc(Cl)cc1)c1nnn2c1nc(N1CCCCC1)c1sccc12	-4%

# An excerpt of these results, with each value named.
23: Cc1nc2nc[nH]n2c(=O)c1CCC(C)C
  VDR inh: -10%

24: CCOc1cc(CNc2nn[nH]n2)ccc1OCC(=O)NC(C)(C)C
  VDR inh: 1%

25: CC1Cn2c(nc3c2c(=O)[nH]c(=O)n3C)O1 (configuration not stated)
  VDR inh: -2%

# Molecules from the list above with an aryl methoxy group (3):
no.	molecule	VDR inh
2	CCNS(=O)(=O)c1ccc(CCC(=O)N2CCN(c3ccc(OC)cc3)CC2)cc1	-5%
4	COc1ccc(-c2[nH]n(-c3ccc([N+](=O)[O-])cc3)c(=O)c2C=NCc2ccncc2)cc1	-9%
16	COc1ccccc1NC(=O)CC1S/C(=N/N=C2\CCCc3ccccc32)NC1=O (configuration not stated)	18%

# (listing goes on)
no.	molecule	VDR inh
31	Cc1ccc2nc(NCCc3ccc(Cl)cc3)c3nncn3c2c1	-6%&0%
32	O=C(COC(=O)/C=C/c1ccc(Br)o1)Nc1cccc(S(=O)(=O)N2CCOCC2)c1	-15%
33	CC(C)C1N=C2c3ccccc3N=C(SCC(=O)NCc3ccc(F)cc3)N2C1=O (configuration not stated)	0%
34	Cc1ccc(C)c(CSc2cn(CCNC(=O)c3cccs3)c3ccccc23)c1	2%
35	CN(C)C(=O)c1ccc(-c2cncnc2-n2ccnc2)cc1	?
36	COc1cccc(CNC(=O)CCCNS(=O)(=O)c2cccs2)c1	5%
37	Cc1ccc(S(=O)(=O)N/N=C(\c2ccccc2)c2cccnc2)cc1	-2%
38	NS(=O)(=O)c1ccc(CCNC(=O)CCCn2c(SCC(=O)N3CCCC3)nc3ccsc3c2=O)cc1	5%
39	CCCC(=O)NCCSC	4%
40	O=C(Nc1ccccc1)C1=C[C@H](C2CCCCC2)C[C@H](OCc2ccc(CO)cc2)O1	-23%
41	CCN(CC)S(=O)(=O)c1ccc2nc(NC(=O)c3ccc(Br)o3)sc2c1	9%
42	COCCNC(=O)COc1cc(=O)n(C)c2ccccc12	1%
43	c1ccc(SCc2nc3ccccc3[nH]2)nc1	17%
44	Cc1cccc2[nH]c(CCNC(=O)C3CCC(=O)N(CCc4cccc(F)c4)C3)nc12 (configuration not stated)	3%
45	COC(=O)CNC(=O)C1Cc2ccccc2CN1S(=O)(=O)c1cccs1 (configuration not stated)	-7%
46	CCOC(=O)c1c(C)[nH]c(NC(=O)N2CCOCC2)c1C	-1%
47	Cc1ccc2nc(C(Cl)(Cl)Cl)nc(N/N=C/c3ccncc3)c2c1	5%
48	Cc1ccc(C(=O)Nc2sc3c(c2C#N)CCCCC3)cc1C	13%
49	O=C(CCCOc1ccc(Cl)cc1Cl)Nc1ccncc1	-8%
50	CCCCSc1nc2c([nH]1)c(=O)n(C)c(=S)n2C	1%
51	O=C(NCCC1=CCCCC1)c1ccc(Br)o1	-6%
52	COC(=O)Cc1c(C)c2ccc(OC(=O)c3ccco3)cc2oc1=O	-6%
53	Cc1nccc(-c2ccc(-n3c(C)ccc3C)cc2)n1	2%
54	O=C(NC(=S)N1CCCCC1)c1csc([N+](=O)[O-])c1	-15%
55	Cc1ccccc1CNc1ccc(C(CC(N)=O)NC(=O)c2ccc(Br)cc2)cc1[N+](=O)[O-] (configuration not stated)	7%
56	O=C(Nc1ccc(O)cc1)c1cc2n(n1)C(C(F)(F)F)CC(c1ccco1)N2 (configuration not stated)	-1%
57	CC(CCN1CCN(c2ccc(F)cc2)CC1)c1ccccc1 (configuration not stated)	-9%
58	CCOc1ccc(NC(=O)C2=NN(c3ccccc3)C(=O)CC2)cc1S(=O)(=O)N1CCCCC1	16%
59	CCNS(=O)(=O)c1ccc(NC(=O)Nc2cccc(OC)c2)cc1	0%
60	COc1cccc([C@@H]2CC=C(C(=O)O)[C@H](c3ccccc3)N2S(=O)(=O)c2ccc(C)cc2)c1	-19%
61	CCN1CCN(S(=O)(=O)c2ccc(Oc3ccccc3OC)cc2)CC1	2%
62	COc1cccc(NC(=O)NCc2ccccc2Cl)c1	7%
63	COCCn1c(C)cc(C(=O)CN2C(=O)NC3(CCCCCCC3)C2=O)c1C	-2%
64	COc1cccc(N2CCN(c3ncnc4c3cnn4-c3ccc(C)cc3C)CC2)c1	-2%
65	COc1cccc(OCCSc2nnc3sc4ccccc4n23)c1	-16%
66	O=C(NCCCl)Nc1cccc(Br)c1	-7%
67	N#CCO/N=C(\c1ccccc1)c1ccncc1	9%
68	COc1ccc(N2CCN(S(=O)(=O)c3ccc(C(=O)NC4CCCC4)cc3)CC2)cc1	-5%
69	O=C(CSc1nc(-c2ccc(F)cc2)cc(C(F)(F)F)n1)Nc1ccc2c(c1)OCO2	-8%
70	CC1CCCC(C)N1CCCNC(=O)c1cc2c(=O)n(C)c3ccccc3c2n1C (configuration not stated)	-14%
71	CC(=O)NCC1(O)CCCC(C)C1 (configuration not stated)	19%
72	CCCC1(c2ccccc2)NC(=O)N(CC(=O)NCc2ccc(OC)cc2)C1=O (configuration not stated)	15%
73	O=C(CCC1CCCN(C(=O)c2cccnc2)C1)NCc1ccccc1F (configuration not stated)	13%
74	Cc1ccc(C)c(C(=O)CN2C(=O)c3ccccc3C2=O)c1	13%
75	C/C(=N\NC(=O)CSc1nc2ccccc2o1)c1ccc(O)cc1	-4%
76	CCNC(=O)O/N=C(\C)c1sc(-c2ccc(Cl)cc2)nc1C	-6%
77	Cc1ccc2nc(C)cc(N/N=C/c3cccc(O)c3)c2c1	6%
78	CCC(C)[C@H](NC(=O)OC(C)(C)C)C(=O)N/N=C/c1ccc2cc(OC)ccc2n1 (some centres not stated)	-27%
79	O=C(Cn1cnc2c(NCc3ccccc3)ncnc21)NCCCc1ccccc1	-1%
80	O=[n+]1cc(-c2ccc(Cl)cc2)n([O-])c2c1CCCCC2	-30%
81	O=C(NCCc1cnc[nH]1)Nc1cccc(C(F)(F)F)c1	-16%
82	CCOC(=O)c1c(NC(=S)NC(=O)/C=C/c2cccs2)sc(C)c1C	-17%
83	CC(C)(C)C(=O)C(C(c1ccccc1)N1CCOCC1)N1CCOCC1 (configuration not stated)	16%
84	O=C(NCC(c1ccco1)N1CCCC1)c1ccc(S(=O)(=O)Nc2ccccc2F)cc1 (configuration not stated)	-21%
85	CCOC(=O)C1(Cc2cccc(F)c2)CCN(C(=O)Cn2cnnn2)CC1	0%
86	Cc1nn(C)cc1/C=N\NC(=O)c1ccc2c(c1)c(C)c(C)n2Cc1ccccc1	-18%
87	CCc1nnc(NC(=O)CSc2nnc3nc(C)cc(C)n23)s1	-5%
88	c1ccc(-c2cc3nccc(-c4ccccn4)n3n2)cc1	-4%
89	CCOc1ccccc1N1CCN(C/C=C/c2ccc(N(C)C)cc2)CC1	1%
90	Cc1c(C#N)c(NC(=O)c2ccccc2)n(Cc2ccccc2)c1C	2%

# The last two records of the part above lead into the next.
no.	molecule	VDR inh
89	CCOc1ccccc1N1CCN(C/C=C/c2ccc(N(C)C)cc2)CC1	1%
90	Cc1c(C#N)c(NC(=O)c2ccccc2)n(Cc2ccccc2)c1C	2%
91	COc1ccccc1NC(=O)C(C)Sc1nc2ccccc2c(=O)n1CC1CCCO1 (configuration not stated)	-5%
92	Cc1cccc(C(=O)N2CCc3cc(CNS(=O)(=O)c4ccc(Cl)s4)ccc32)c1	11%
93	O=C(Nc1ccc(S(=O)(=O)Nc2ncccn2)cc1)c1ccccc1NS(=O)(=O)c1ccc(Cl)cc1	4%
94	CCOC(=O)c1cn(-c2nc(-c3ccc(Cl)c(Cl)c3)cs2)c2c(F)c(N3CCOCC3)c(F)cc2c1=O	1%
95	Fc1ccc(N2CCN(Cc3cnc(N4CCOCC4)s3)CC2)cc1	-12%
96	CC1CCN(c2ccccc2NC(=O)c2ccc(C#N)cc2F)CC1	-23%
97	CN(Cc1ccccc1)C(=O)CCn1c(=O)c2cccn2c2cccnc21	9%
98	Cc1ccc(NC(=O)CSCC(=O)O)c(C)c1	8%
99	COCCN1C(=O)c2ccccc2C(C(=O)N2CCN(c3ccccn3)CC2)C1c1ccc(F)cc1 (configuration not stated)	-3%
100	CCn1c(SCC(=O)c2ccccc2)nc2c(c1=O)SC(C)C2 (configuration not stated)	2%
101	Cc1cc(Cl)ccc1OC(C)C(=O)NN=C1CCCCCC1 (configuration not stated)	23%
102	CCc1ccc2nc(N(CCN(C)C)C(=O)c3ccc4ccccc4c3)sc2c1	-7%
103	Cc1nc2ccccn2c1C(=O)N/N=C/c1cc(C)n(-c2ccc(Cl)cc2)c1C	-2%
104	Cc1ccc(SCCNC(=O)CN(c2ccccc2)S(=O)(=O)N(C)C)cc1	-3%
105	O=C(NN=C1CCCCCCC1)C(=O)NC1CCCCC1	-13%
106	CCCCCN(C(=O)CCC(=O)OCc1cc(C(C)=O)ccc1OC)c1c(N)n(CCCC)c(=O)[nH]c1=O	5%
107	COc1cc(C)c(S(=O)(=O)NC2CC(C)(C)NC(C)(C)C2)cc1C	12%
108	Cc1cc(NC(=O)Cc2cccs2)nn1CC(=O)NCc1ccco1	-3%
109	Cc1ccc(-c2cc(C3C4C=CCCC4(C)C(=O)N3Cc3ccccc3)ccc2F)cc1 (configuration not stated)	1%
110	CCOc1ccc(N2CC(C(=O)Nc3cccc(S(=O)(=O)N4CCCC4)c3)CC2=O)cc1 (configuration not stated)	-9%
111	CCCCC(=O)Nc1ccc(C(=O)NNC(=O)c2ccco2)cc1	1%
112	COC(=O)c1cc(CN2CCN(c3ccccc3C)CC2)ccc1O	3%
113	O=C(NCCCc1nc2ccccc2n1Cc1ccc(F)cc1)C1CCCCC1	10%
114	CC(=O)Nc1nc(C)nc(-c2ccccc2)c1C(C)=O	8%
115	CCOC(=O)c1sc(NC(=O)CSc2nccc(C)n2)c(C#N)c1C	1%
116	O=C(CN1C(=O)c2ccccc2C1=O)NCc1ccccn1	-3%
117	CC(C)CC(=O)Nc1ccc(-c2cn3cccnc3n2)cc1	7%
118	O=C(Nc1ccc(F)cc1)c1cc(S(=O)(=O)N2CCCCC2)cs1	7%
119	COc1cccc(OCc2cc(C(=O)N(C)Cc3nc4ccccc4[nH]3)no2)c1	-6%
120	CCC(C)[C@H](NC(=O)[C@H](Cc1ccccc1)n1c(=O)[nH]c2ccccc2c1=O)C(=O)NCC1CCC(C(=O)O)CC1 (some centres not stated)	-6%
121	CCc1ccc(NC(=O)COc2cccc(-n3cnnn3)c2)cc1	-1%
122	CC(=O)c1ccc(NC(=O)C(Cc2ccccc2)n2cccc2)cc1 (configuration not stated)	?

# Bioassay records deposited in PubChem BioAssay by National Center for Advancing Translational Sciences (NCATS).

# Some of the compounds tested; the hit share may differ from the screen's.
